Screening results as filed in PubChem.
motility = Vibrio cholerae motility inhibitors, OD read-out (AID 588778); inhibition, %, or IC50 in µg/mL where a hit was titrated; 10,000 tested, under 10 active; Vibrio cholerae motility, OD read-out; higher % means a stronger effect; test concentration not given here; primary cut-off and reference of the scale not given here; strong numbers were not always called active; in the data active = confirmed in a dose series
motility viability = also measured in motility; calls as there; inhibition, %; measured here: bacterial viability at 10 ug/mL;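 higher means fewer living bacteria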
* = called active by the depositor. A portion of the library (hit frequency here may not be typical).

SMILES	motility	motility viability
O=C1CC(c2ccco2)CC2=C1C=Nc1ccccc1N2 (centres undefined)	1%	-1
C/C(=N\NC(=O)c1ccc(CN2CCOCC2)cc1)c1cccs1	2%	12
CSc1ccc(-c2nc3ccccc3[nH]2)cc1	2%	1
COc1c(Br)cc(Cl)cc1C=O	-2%	-4
Cc1ccc(SCc2[nH]nc3c2C2(CCSCC2)C(C#N)=C(N)O3)cc1	6%	9
O=C(O)c1cccc(CSc2n[nH]c(-c3ccc(Cl)cc3Cl)n2)c1	22%	6
COc1cc(C=O)ccc1OCC(N)=O	4%	7
CC(C)(C)OC(=O)CSc1nc2ccc(Cl)cc2[nH]1	11%	0
CCOC(=O)c1ccc(NC(=S)Nc2nn(Cc3ccc(Cl)cc3Cl)cc2Cl)cc1	-4%	-2
CSc1ccccc1NC(=S)Nc1cccc(Cl)c1C	-3%	-10
CC(NC(=O)c1ccccc1Br)c1nnc(SCC(=O)NC2CCCCC2C)n1C (centres undefined)	-6%	-5
Fc1cccc(Cl)c1CNCc1cccnc1	2%	4
CCc1nnc(NC(=O)c2cnccn2)s1	-4%	-3
CCn1c(SCC(=O)NC2CCCCC2)nc2ccccc21	8%	0
O=C(Nc1cccc2cccnc12)c1ccc(Br)o1	-8%	-8

Looked up above.
Value for COc1c(Br)cc(Cl)cc1C=O under motility viability: -4
Value for CSc1ccc(-c2nc3ccccc3[nH]2)cc1 under motility: 2%

Continued:
SMILES	motility	motility viability
CC(Nc1nc(N2CCN(C(=O)c3ccc(Cl)cc3)CC2)nc2ccccc12)c1ccccc1 (centres undefined)	7%	31
Cc1ccc(C)c(NC(=O)CCC(=O)n2nc(C)cc2C)c1	12%	29
CCCSc1ccc(Cl)cc1[N+](=O)[O-]	14%	4
S=C(NCc1ccccc1)NNc1nc2ccccc2s1	28%	-2
C=CCn1c(SCC(=O)Nc2ncc(Cc3cc(Cl)ccc3Cl)s2)nnc1-c1ccncc1	3%	-2
COc1ccc(CCNC(=O)c2ccccc2-c2ccccc2)cc1	13%	5
COc1cccc2c(=O)c3ccccc3oc12	-21%	-6
COc1ccc(CNC(=O)C(Cl)(Cl)Cl)cc1	17%	33
CN(C)NC(=O)C(NC(=O)c1ccccc1)C12CC3CC(CC(C3)C1)C2 (centres undefined)	8%	1
O=C(O)c1ccc(/C=N/Nc2nncc(=O)[nH]2)cc1	-7%	-3
Nc1ccc2nc(SCc3c(Cl)cccc3Cl)sc2c1	27%	6
CCOC(=O)Nc1ccc2c(c1)N(C(=O)N(C)C)c1ccccc1CC2	6%	-5
COc1ccc(C(=O)CN(C(=O)c2ccc(Cl)cc2)N2C(=O)c3ccccc3C2=O)cc1	-28%	-11
Cc1ccc(NS(=O)(=O)N2CCOCC2)cc1Cl	5%	0
O=C1CC(C(=O)Nc2cccc(C(F)(F)F)c2)C2(CCCCC2)O1 (centres undefined)	4%	-2

Entries of single compounds as entered above. Order of values: motility, motility viability
Entry for CCOC(=O)Nc1ccc2c(c1)N(C(=O)N(C)C)c1ccccc1CC2 = 6%, -5
Entry for Cc1ccc(NS(=O)(=O)N2CCOCC2)cc1Cl = 5%, 0
Entry for CC(Nc1nc(N2CCN(C(=O)c3ccc(Cl)cc3)CC2)nc2ccccc12)c1ccccc1 (centres undefined) = 7%, 31
Entry for Nc1ccc2nc(SCc3c(Cl)cccc3Cl)sc2c1 = 27%, 6
Entry for S=C(NCc1ccccc1)NNc1nc2ccccc2s1 = 28%, -2

Some of these compounds in order of molar mass, low to high.
SMILES	motility	motility viability
O=C(O)c1ccc(/C=N/Nc2nncc(=O)[nH]2)cc1	-7%	-3
Cc1ccc(NS(=O)(=O)N2CCOCC2)cc1Cl	5%	0
Cc1ccc(C)c(NC(=O)CCC(=O)n2nc(C)cc2C)c1	12%	29
O=C1CC(C(=O)Nc2cccc(C(F)(F)F)c2)C2(CCCCC2)O1 (centres undefined)	4%	-2
CCOC(=O)Nc1ccc2c(c1)N(C(=O)N(C)C)c1ccccc1CC2	6%	-5
CN(C)NC(=O)C(NC(=O)c1ccccc1)C12CC3CC(CC(C3)C1)C2 (centres undefined)	8%	1
COc1ccc(C(=O)CN(C(=O)c2ccc(Cl)cc2)N2C(=O)c3ccccc3C2=O)cc1	-28%	-11

(list continues)
SMILES	motility	motility viability
COC(=O)C1=CN(Cc2ccc(OC)c(OC)c2)C=C(C(=O)OC)C1c1cccc([N+](=O)[O-])c1	-3%	-3
Cc1ccc(-c2noc(Cn3cc(C=O)c4ccccc43)n2)cc1	1%	-10
CCc1cc(C(=O)OC)c(NC(=S)NNC(=O)Cc2c(F)cccc2Cl)s1	4%	-7
O=C(Nc1nccs1)C(c1ccccc1)N1CCOCC1 (centres undefined)	-5%	-6
Cc1ccccc1N1C(=O)NC(=O)/C(=C\C=C\c2ccccc2[N+](=O)[O-])C1=O	6%	5
Cc1cc(F)ccc1NCc1cccnc1	-14%	-4
COC(=O)c1ccccc1NC(=O)Cn1c(=O)n(C)c(=O)c2ccccc21	-3%	10
COc1cccc2cc(C(=O)CC3(O)C(=O)N(C)c4ccc(Br)cc43)c(=O)oc12 (centres undefined)	19%	23
COC(=O)c1cccc(NC(=O)c2ccc(C(C)(C)C)cc2)c1C	-2%	-3
O=C(OCc1ccccn1)c1cccc(COc2ccccc2Cl)c1	10%	-4
O=C(COc1ccccc1F)Nc1nnc(-c2ccc(Cl)cc2Cl)s1	11%	31
C=CCNC(=O)C(=O)NCCN1CCOCC1	25%	5
Cn1cnnc1SCCCN1C(=O)c2cccc3cccc(c23)C1=O	13%	2
COc1ccc([N+](=O)[O-])cc1NC(=S)Nc1ccc(Br)cc1Cl	9%	12
CN1C(=O)C2C=CC=CC2N=C1SCC(N)=O (centres undefined)	8%	10
Cc1c(Cl)cccc1NC1=CC(=O)CC(C)(C)C1	2%	-1
COc1ccc(O)c(-c2cn[nH]c2-c2cccs2)c1	28%	17
Cn1c(NC(=O)c2cc(-c3ccc4c(c3)OCO4)nc3ccccc23)cc(=O)n(C)c1=O	5%	-4
CCOC(=O)N1CCN(C(=O)Cc2cccs2)CC1	3%	-6
CCOC(=O)COc1c(I)cc(C2C(C(=O)OC)=C(C)NC(C)=C2C(=O)OC)cc1OCC	1%	9
CCOc1ccc(C(C)NC(=O)c2ccccc2Cl)cc1 (centres undefined)	2%	2
CC(C)(O)C#Cc1ccc(C(=O)N2CCN(c3ccccc3Cl)CC2)cc1	9%	1
O=S(=O)(Nc1ccc(N2CCOCC2)cc1)c1cccs1	-5%	-4
O=C(c1ccc(Br)cc1)c1cc([N+](=O)[O-])ccc1N1CCOCC1	-28%	-9
N#Cc1cn(CC(=O)Nc2ccc(Br)cc2)c2ccccc12	22%	9
O=c1[nH][nH]c(=S)n1-c1ccccc1O	16%	10
CCOC(=O)c1cc(NC(=O)CCCc2ccc(OC)c(C)c2)ccc1Cl	2%	0
O=C(O)CSc1cc(NS(=O)(=O)c2cccc([N+](=O)[O-])c2)c2ccccc2c1O	41%	10
O=C(NC1(C(F)(F)F)C(=O)Nc2c1c(=O)[nH]c(=O)n2-c1ccccc1)c1cccs1 (centres undefined)	3%	18
O=C(CC12CC3CC(CC(C3)C1)C2)NC(=S)Nc1ccc(-c2nc3cc(Cl)ccc3o2)c(O)c1	-5%	-2
CCCc1ccc(OCc2ccc(C(=O)Nc3cccc(C)n3)o2)c(OC)c1	10%	19
COc1ccc2nc(-n3c(C)ccc3C)sc2c1	-14%	-9
O=C(O)c1ccc(CNC(=S)NCC2CCCO2)cc1 (centres undefined)	4%	19
Cc1cc(C)c2cccc(NC(=O)C(C)N3C(=O)c4ccccc4C3=O)c2n1 (centres undefined)	-13%	-2
CCCc1nnc(NC(=O)Cc2coc3ccc(CC)cc23)s1	-6%	-2
COC(=O)C1=CN(c2ccc(F)c(F)c2)C=C(C(=O)OC)C1c1cc(OC)ccc1OC	-2%	-3
O=S(=O)(Nc1cccnc1)N1CCOCC1	-9%	-12
O=C(NCC(=O)c1cccs1)c1ccc(-c2cc(Cl)ccc2Cl)o1	-3%	0
CCOC(=O)C(C)n1cnc2scc(-c3ccc(Cl)cc3)c2c1=O (centres undefined)	2%	5
CC(=O)NC(=S)Nc1cc(C(=O)O)ccc1Cl	21%	3
COc1ccc(CSCCN)cc1Cl	18%	24
CC(=O)c1cc2c(cc1NC(=O)CSc1nc3cc(Cl)ccc3s1)OCO2	-12%	-9
COC(=O)CNC(=O)c1cn(-c2ccccc2)nc1-c1cccc(Br)c1	6%	2
CCCC(=O)Nc1ccc(C(=O)NCCCn2ccnc2)cc1	6%	3
COC(=O)c1ccc(Cn2cc(/C=C(/C#N)c3nc4ccccc4[nH]3)c3ccccc32)o1	-20%	-15
COc1cc(N(C)C)c(NC(C)=O)cc1C(=O)O	-12%	-5
CCc1cccc2c(C(=S)N3CCOCC3)c[nH]c12	2%	-2
CC(=O)c1ccc(NC(=O)Nc2ccc3c(c2)nc(C)n3C)cc1	0%	4
Cc1nnc2c(N3CCCCC3C)nc3ccccc3n12 (centres undefined)	1%	-2
Cc1ccc(C(=O)Nc2cc(C(F)(F)F)ccc2N2CCOCC2)cc1[N+](=O)[O-]	0%	-3
CC(=O)C1=C(C)NC(C)=C(C(C)=O)C1c1ccc(-c2ccccc2Cl)o1	-8%	-4
CNC(=S)Nc1ncn(Cc2cccc(F)c2)n1	-8%	-12
Cc1[nH]n(S(=O)(=O)c2ccccc2)c(=O)c1N=Nc1cccc(Cl)c1	-9%	-4
O=C(O)CCSc1c[nH]c2ccccc12	24%	6
COc1cccc(N2C(=O)CC(N3CCN(CCN=CC4=C(O)CC(C)(C)CC4=O)CC3)C2=O)c1 (centres undefined)	4%	0
O=c1c2c(-c3ccccc3)csc2nc2c3ccccc3c3nnnn3n12	-8%	5
O=C(Nc1cccc(S(=O)(=O)N2CCCC2)c1)c1cc(-n2cnnc2)ccc1Cl	4%	4
Cn1nnnc1SCC(=O)N1CCN(C(c2ccccc2)c2ccccc2)CC1	29%	14
CCC1(C)Cc2nc(N)c(C#N)cc2CO1 (centres undefined)	20%	18
Cc1ccc2nc(-c3ccc(NC(=O)c4cc(C)on4)cc3)sc2c1	-30%	-8
Carrying on.
SMILES	motility	motility viability
COc1cc(C2C3=C(CCCC3=O)Nc3ccc4nc(C)ccc4c32)cc(OC)c1OC (centres undefined)	3%	3
Cc1c(Cl)cccc1N/C=C(\C#N)c1nc2ccccc2[nH]1	-8%	-10
CC(C)C1Cc2c(sc3c2c2n[nH]c(=S)n2c2n[nH]c(=S)n32)CO1 (centres undefined)	6%	4
Cc1ccc(-c2nnc(-c3ccc(F)cc3)o2)cc1	5%	10
O=C(CCCN1C(=O)c2cccc3cccc(c23)C1=O)N1CCN(c2ncccn2)CC1	2%	29
O=S(=O)(Oc1c(Cl)cccc1Cl)c1ccc(I)cc1	-2%	-4
NC(=O)C1(N2CCCCC2)CCN(C(=S)NCCc2ccccc2)CC1	3%	-10
Nc1cc(=O)[nH]c(SCc2noc(-c3ccc(Cl)cc3)n2)n1	-9%	-5
O=C(c1cccs1)N1CCN(c2cnn(-c3ccccc3)c(=O)c2Cl)CC1	9%	1
O=C(O)CCC(=O)c1sc(Cl)c(Cl)c1Cl	12%	-2
Cc1nn2c3ccccc3n(C)c2c1C(=S)Nc1ccccc1	30%	4
Cc1nnc(SCC(=O)NCc2ccco2)s1	-4%	-3
O=c1cccc2n1CC1CC2CN(c2nc(N3CCCC3)nc(N3CCCC3)n2)C1 (centres undefined)	24%	28
N#Cc1ccc(CSc2nnc(Cc3cccs3)n2Cc2ccco2)cc1	0%	0
CC(NC(=O)NC1CCCCC1)c1ccccc1 (centres undefined)	4%	1
O=C(NCc1ccccc1)NC(=O)c1ccccc1F	-11%	2
CC(=O)c1cccc(NC(=S)N2CCC3(CC2)OCCO3)c1	6%	8
CCOC(=O)c1ccc(NC(=O)CSc2nnc(Cc3cccc4ccccc34)n2C)cc1	-6%	0
O=C(CNC(=O)C1CCCCC1)Nc1nncs1	-3%	-7
CCCc1nc(SCc2c(F)cccc2Cl)n[nH]1	9%	-2
Cc1cc(C)c(S(=O)(=O)N2CCN(C(=O)Cc3ccccc3)CC2)c(C)c1	14%	1
Nc1nnc(CC(=O)N2CCCC2)s1	4%	8
Nc1cc(N)nc(SCC(=O)NC2CCCCC2)n1	9%	4
Cc1cc(C)cc(NC(=O)c2ccccc2OCc2ccc(N3C(=O)CCC3=O)cc2)c1	-5%	-4
COc1ccccc1N1CCN(C2CCN(C(=O)c3cccs3)CC2)CC1	-15%	-4
Cc1c(NC(=S)NC(=O)C(c2ccccc2)c2ccccc2)cccc1-c1nc2ncccc2o1	-17%	0
Cc1cc(NC(=O)c2cc3nc(C4CC4)cc(C(F)(F)F)n3n2)n(-c2ccccc2)n1	4%	1
CSc1cccc(NC(=O)Cn2c(C)c(C=O)c3ccccc32)c1	21%	5
COC(=O)c1ccccc1NC(=O)CSc1nc(N)cc(=O)[nH]1	7%	-2
CCOC(=O)c1ccc(NC(=O)c2ccc(C)s2)cc1	12%	5
O=C(OCc1ccc(S(=O)(=O)N2CCOCC2)cc1)c1c2c(nc3ccccc13)CCCC2	4%	-1
OCCNCc1cccc(OCc2ccccc2Cl)c1	24%	8
Cn1nc([N+](=O)[O-])nc1N1CCCCC1	-5%	-4
Fc1cccc(Cl)c1Cn1nnc(-c2ccc3c(c2)OCO3)n1	-17%	-3
Cn1cccc1/C=C(/C#N)c1ccccc1F	45%	17
